# MbtI inh: MbtI salicylate synthase inhibitors, primary screen, biochemical, fluorescence intensity. purified MbtI enzyme, fluorescence intensity read-out. P9WFX0. inhibition, %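 (about 17 µg/mL by stock and volumes)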. actives 0.89% (n = 100,000);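 active means above 50% in both replicates, above 80% if mildly self-fluorescent; inactive means the rest, strongly fluorescent compounds included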;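 further: 0% = mean of negative and 100% = mean of positive controls; one replicate is shown; some compounds called inactive have numbers as strong as hits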
# Target sequence (P9WFX0 whole entry, looked up): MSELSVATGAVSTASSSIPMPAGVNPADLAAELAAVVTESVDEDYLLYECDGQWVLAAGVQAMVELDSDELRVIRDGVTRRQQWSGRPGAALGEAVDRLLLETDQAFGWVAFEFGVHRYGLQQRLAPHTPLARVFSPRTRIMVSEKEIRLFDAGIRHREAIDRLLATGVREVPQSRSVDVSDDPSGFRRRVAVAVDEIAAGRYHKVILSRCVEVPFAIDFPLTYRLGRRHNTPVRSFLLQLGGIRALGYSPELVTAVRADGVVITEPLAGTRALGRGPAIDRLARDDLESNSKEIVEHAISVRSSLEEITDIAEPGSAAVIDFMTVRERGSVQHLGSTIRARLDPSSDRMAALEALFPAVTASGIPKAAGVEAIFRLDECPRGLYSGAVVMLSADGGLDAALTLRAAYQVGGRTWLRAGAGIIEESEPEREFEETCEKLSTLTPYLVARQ
# Mtb MenB inh: M. tuberculosis MenB inhibitors, primary screen, biochemical, absorbance | 1,4-dihydroxy-2-naphthoyl-CoA synthase (Mycobacterium tuberculosis (strain ATCC 25618 / … | MenB enzyme assay, absorbance read-out; some hits fall short of the stated cut | inhibition, %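 (about 12 µg/mL by stock and volumes)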 | actives 0.43% (n = 100,000) | AID 540299, 2011;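 active means mean of two replicates above 30%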;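 further: 0% = no compound and 100% = wells with inactive enzyme; the first replicate is given; strong numbers were not always called active; inactives centre near -10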
# Target sequence (P9WNP5 whole entry, looked up): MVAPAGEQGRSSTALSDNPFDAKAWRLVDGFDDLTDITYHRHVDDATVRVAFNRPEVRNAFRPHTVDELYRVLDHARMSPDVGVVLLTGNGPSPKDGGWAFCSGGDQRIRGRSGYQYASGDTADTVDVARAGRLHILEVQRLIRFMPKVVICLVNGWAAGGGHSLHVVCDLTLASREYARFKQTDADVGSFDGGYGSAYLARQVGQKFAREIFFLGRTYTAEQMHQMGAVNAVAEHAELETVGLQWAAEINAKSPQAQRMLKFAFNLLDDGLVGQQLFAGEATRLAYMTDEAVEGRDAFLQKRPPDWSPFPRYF
# Polio RdRp inh: poliovirus RdRp elongation inhibitors, primary screen, biochemical, fluorescence polarization, total intensity | poliovirus polymerase elongation; stronger effect = lower value | % elongation, % (compound at 16.7 µg/mL) | actives 0.66% (n = 150,000); in the data active means % elongation below about 90%; further: some results filed as inactive read as strong as hits
# Polio RdRp inh intensity: second read-out of Polio RdRp inh, no call of its own (marks repeat the call); % elongation; measured here: total intensity read-out; formula for this scale not given here;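 total fluorescence in place of polarization; lower means less elongation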
# An asterisk follows results filed as active; i = inactive; / = no result given; & = joins results of further samples.
item | Molecule | MbtI inh | Mtb MenB inh | Polio RdRp inh | Polio RdRp inh intensity
1 | COc1cc(/C=N/N=C2/C(=O)Nc3ccccc32)ccc1OCC(=O)N1CCOCC1 | 3 | -10 | 99 | 93
2 | CC(C)C(NC(=O)c1ccccc1F)C(=O)Nc1ccc(N2CCOCC2)cc1 (stereo not given) | -6 | -10 | 106 | 109
3 | c1ccc2[nH]c(-c3ccc(Sc4nnnn4C4CCCC4)nc3)nc2c1 | 103 | 3 | 102 | 108
4 | NC(=O)/C=C\c1cn(-c2ccccc2)nc1-c1ccc(F)cc1 | -4 | / | 102 | 104
5 | Cc1ccc(NC(=O)Cn2c(=O)/c(=C3\C(=O)Nc4ccccc43)s/c2=C\C#N)cc1 | -5 | -18 | 109 | 113
6 | O=C(C1=C(O)C(=O)N(c2nncs2)C1c1cccs1)c1cccs1 (stereo not given) | -8 | -171 | 49 | 209
7 | c1ccc2[nH]c(Nn3cnnc3)nc2c1 | -3 | -2 | 103 | 105
8 | CCn1cc(C(=O)NCc2ccc3c(c2)OCO3)c(=O)c2cc(S(=O)(=O)N(C)C)ccc21 | -7 | 7 | 100 | 104
9 | CS(=O)(=O)c1ccc(F)cc1 | 2 | 7 | 103 | 105
10 | Oc1cc(C(F)(F)F)cc(C(F)(F)F)c1 | -1 | / | 101 | 97
11 | Cc1ccc(N2CCN(C(=O)N3CCCCCC3)CC2)cc1Cl | 1 | -39 | 100 | 99
12 | Cc1ccc(N2C(=O)C(C=NCc3ccc(C(=O)O)cc3)C(=O)NC2=S)cc1 (stereo not given) | 3 | -12 | 102 | 102
13 | CCS(=O)(=O)N1CCC(Oc2ccc(-n3cnnn3)cc2)CC1 | -8 | 8 | 98 | 102
14 | CC(=O)N(CN1C(=O)c2ccccc2C1=O)c1ccc2ccccc2c1 | 0 | -19 | 104 | 97
15 | Cc1ccccc1-c1n[nH]c(=S)n1/N=C/c1ccc(N(C)C)cc1 | -34 | -86 | 101 | 101
16 | COc1cc2c(cc1OC)-c1nnc(-c3cccnc3)n1C1(CCCC1)C2 | -2 | -46 | 101 | 102
17 | COc1ccccc1S(=O)(=O)CC(SC#N)c1ccccc1 (stereo not given) | 11 | 15 | 97 | 102
18 | c1csc(-c2nc3ccc4ccccc4c3c3c2CCC3)c1 | / | 0 | 103 | 95
19 | Clc1ccc(C=NCC2COc3ccccc3O2)cc1 (stereo not given) | -1 | 7 | 102 | 105
20 | CN(C)CCSc1nnc(NCc2ccccc2O)s1 | 7 | -6 | 102 | 92
21 | C/C(N)=C(/C#N)C(=O)CN(C)C1CCCCC1 | 11 | -1 | 100 | 115
22 | CCc1cccc(NC(=O)OC2CCN(C)CC2)c1 | / | 2 | 101 | 109
23 | Nc1cccc2c1C(=O)N(CCOc1ccccc1F)C2=O | -23 | -67 | 63 | 109
24 | Cc1cccc(NC(=S)N(CCN(C)C)Cc2cc3cc4c(cc3[nH]c2=O)OCO4)c1 | 135 | -12 | 103 | 104
25 | COC(=O)CSc1nc2ccccc2o1 | 19 | 7 | 106 | 102
26 | CN1CCC2(CC1)CC1CC3C=CC1(CN2)O3 (stereo not given) | -1 | 16 | 100 | 101
27 | Cc1sc2nc(CN3CCOCC3)nc(NS(=O)(=O)c3ccc4c(c3)OCCO4)c2c1C | 8 | 13 | 105 | 100
28 | OCCN1CCN(C(=S)/N=C(/Nc2ccccc2)c2ccccc2)CC1 | 5 | -30 | 106 | 103
29 | CC(C)N1CCC(=O)N(c2ccccc2)C1=O | -12 | -5 | 106 | 108
30 | O=C(CCCn1sc2ccccc2c1=O)Nc1ccccc1F | -5 | 0 | 101 | 102
31 | Cc1nc2scc(CC(C)C)c2c(=O)[nH]1 | 9 | 1 | 105 | 98
32 | COC(=O)Cn1c(=N)n(CCN2CCCCC2)c2ccccc21 | -10 | 3 | 99 | 101
33 | Cc1cc(C(F)(F)F)nn1CC(=O)Nc1ccc2c(c1)OCO2 | -9 | -6 | 100 | 104
34 | Cc1ccc(-c2ccc(N)cc2)cc1 | / | -26 | 102 | 102
35 | CC(C)(C)n1nc2c(c1NC(=O)/C=C/c1ccccc1)CSC2 | 8 | 1 | 101 | 101
36 | CC(C)N=Cc1cc2n(c1O)-c1ccccc1C2=O | 36 | -463 | 79 | 174
37 | CC(C)(C)OC(=O)N1CCCN(C(=O)Nc2ccccc2)CC1 | 6 | -9 | 100 | 95
38 | CC(=O)Oc1cn(C(C)=O)c2ccccc12 | i | -80 | 105 | 100
39 | FC(F)(F)c1cc(-c2cccnc2)nc2cc(C3CC3)nn12 | 2 | -15 | 103 | 104
40 | Cc1ccccc1S(=O)(=O)Cc1ccc(C(=O)NCCCN2CCCC(C)C2)o1 (stereo not given) | 5 | -18 | 100 | 100
41 | O=C(O)/C=C\C(=O)NCc1ccc2c(c1)OCO2 | 10 | -16 | 103 | 105
42 | CCCCN(CC)C(=O)c1sc2ncnc(N3CCN(c4ccc(OC)cc4)CC3)c2c1C | -8 | -33 | 105 | 106
43 | CCOC(=O)N1CCC(NC(=O)c2nn(-c3ccc(C)cc3)c(=O)c3c2c2ccccc2n3C)CC1 | 31 | -9 | 101 | 102
44 | O=C(O)C1C2C=CC(C2)C1C(=O)NCc1ccc2c(c1)OCO2 (stereo not given) | -6 | -20 | 104 | 107
45 | CC(=O)OCC(=O)[C@@]1(O)CCC2C3CCC4CC(=O)CCC4(C)C3CCC21C (stereo not given in full) | / | 3 | 104 | 95
46 | O=C(CCCOc1ccc(Cl)cc1)N1CCCCCC1 | / | -13 | 106 | 103
47 | NC1=NC(=Nc2ccccc2)c2ccccc21 | 3 | / | 100 | 106
48 | CC(=O)N1CC(C(=O)Nc2cccc3ncccc23)Oc2ccccc21 (stereo not given) | -9 | -2 | 94 | 130
49 | CC(C)(Oc1ccc(Cl)cc1)C(=O)OCCN1CCCC1=O | 1 | / | 100 | 101
50 | S=c1[nH]nc(-c2ccncc2)n1Cc1ccccc1 | 36&42 | 1&6 | 104&102 | 101&103
51 | CCn1c(-c2ccccc2)cs/c1=N/NC(=O)c1ccncc1 | -2 | -48 | 102 | 98
52 | COc1cccc(-c2cc(C(F)(F)F)nc(SC3CC(=O)C4OCC3O4)n2)c1 (stereo not given) | / | -4 | 108 | 111
53 | O=C(Cc1ccc(Cl)cc1)N1CCN(c2ccc(F)cc2)CC1 | -2 | -26 | 105 | 106
54 | Nc1nc(SCC(=O)N2CCCC2)[nH]c(=O)c1-c1ccccc1 | / | 6 | 103 | 108
55 | N#Cc1c(-c2ccccc2)cc(C2CC2)nc1N | -486 | -88 | 102 | 99
56 | CCOC(=O)c1cc(-c2ccc(F)cc2)n(CC(=O)NCc2cccs2)c1C | -7 | -21 | 102 | 98
57 | COc1ccc(C(=O)NCCN2CCCC2)cc1OC | 4 | -12 | 101 | 101
58 | CCCOc1ccc(C(C)(O)CN2CCOCC2)cc1 (stereo not given) | 0 | -3 | 100 | 104
59 | CCOC(=O)c1ccc(NC(=O)CSc2nnc(CNC(=O)c3ccco3)n2-c2ccc(F)cc2)cc1 | -2 | -8 | 101 | 103
60 | CCCC(C)C(=O)NCc1ccccc1 (stereo not given) | 10 | -10 | 100 | 102

# (more compounds)
item | Molecule | MbtI inh | Mtb MenB inh | Polio RdRp inh | Polio RdRp inh intensity
61 | O=C(Nc1ccc2[nH]c(=O)[nH]c2c1)c1cc(-c2ccco2)nc2ccccc12 | 92 | -22 | 102 | 91
62 | O=C(N[C@@H](Cc1ccccc1)C(=O)NCc1cccs1)c1cccs1 | -8 | -37 | 104 | 106
63 | COC(=O)C1C2C=CC3(CN(C(c4ccccc4)c4ccccc4)C(=O)C13)O2 (stereo not given) | / | 0 | 104 | 103
64 | O=C(O)c1ccc2c3c(cccc13)C(=O)N(c1ccccc1O)C2=O | 1 | -14 | 101 | 119
65 | O=S(=O)(NCc1csc2ccc(Cl)cc12)c1cc(S(=O)(=O)c2ccccc2)cs1 | -6 | -22 | 103 | 104
66 | CCc1ccc(NC(=S)NC(=O)/C=C/c2ccco2)cc1 | 53 | -38 | 107 | 117
67 | O=C(Cn1c(=O)oc2ccccc21)NC12CC3CC(CC(C3)C1)C2 | -17 | -17 | 100 | 99
68 | COc1ccc2c3c1OC1CC(O)C=C[C@@]31CCN(C)C2 (stereo not given in full) | -3 | -2 | 100 | 105
69 | COc1ccc(C2=N/C(=C\c3ccco3)C(=O)O2)cc1 | 18 | -38 | 101 | 105
70 | CCOC(=O)C1CCN(S(=O)(=O)C(F)(F)c2nc3ccccc3s2)CC1 | -3 | -19 | 108 | 100
71 | O=C(Nc1ccccc1)N1CCC(n2c(=O)[nH]c3ccccc32)CC1 | -10 | -15 | 101 | 106
72 | CCOc1ccc(-c2nnc3ccc(SCC(N)=O)nn23)cc1 | 40 | -8 | 101 | 102
73 | COc1cccc(C(=O)Nc2cccc(C)c2)c1 | -14 | 1 | 101 | 102
74 | CC(=O)Oc1ccc2oc(=O)sc2c1 | 19 | -40 | 103 | 100
75 | O=C(Cn1cc(C(F)(F)F)ccc1=O)N1CCN(S(=O)(=O)c2ccc(Cl)cc2)CC1 | -11 | 5 | 105 | 105
76 | COc1ccc(-c2nnc(SC(C(=O)NC(N)=O)c3ccccc3)n2CC2CCCO2)cc1 (stereo not given) | 8 | -27 | 103 | 106
77 | C=CCN1C(c2ccc(C)cc2)=CS/C1=C(\C#N)C(=O)OCC | -1 | -1 | 103 | 105
78 | Cc1ccc(C2CC(c3cccs3)=NN2C(=O)CSc2nnc(CNC(=O)c3ccco3)n2-c2ccccc2)cc1 (stereo not given) | 67 | -12 | 102 | 104
79 | NC(=O)C1CCN(C(=O)c2cccc3ccccc23)CC1 | 2 | / | 101 | 105
80 | O=C1CC(c2cccc(O)c2)C2=C(CC(c3cccs3)CC2=O)N1 (stereo not given) | 11 | 7 | 100 | 102
81 | Cc1nc(CCn2cnc3cc(C)c(C)cc32)no1 | -5 | -27 | 106 | 99
82 | CC(NC(=O)Cn1ncc2ccsc2c1=O)C12CC3CC(CC(C3)C1)C2 (stereo not given) | 1 | 7 | 102 | 99
83 | CCOC(=O)C1=C(CSc2nnc(C)s2)NC(=O)NC1c1ccccc1OC (stereo not given) | 1 | -14 | 101 | 102
84 | O=C(COc1ccccc1OC(=O)c1ccc(Cl)cc1)NCc1ccccc1Cl | 0 | -13 | 108 | 99
85 | O=C(CN1C(=O)CSc2cc(S(=O)(=O)N3CCCC3)ccc21)NC1CCCCCC1 | -2 | 3 | 103 | 98
86 | Cc1nc2sccn2c1Br | -5 | -12 | 101 | 103
87 | CCOc1ccc(-c2cnc(SCC)nc2N)cc1 | -112 | -31 | 105 | 101
88 | C/C(=N\NC(=O)c1ccc(CSc2nc3ccccc3[nH]2)cc1)c1ccco1 | 12 | 8 | 102 | 105
89 | C=CCn1c(=O)c(C(=O)Nc2ccccc2)c(O)c2ccccc21 | 3 | -9 | 103 | 100
90 | Nc1nnc2ccccc2n1 | 9 | -92 | 98 | 102
91 | CCC(=O)Nc1c(CC)cccc1CC | 6 | -12 | 98 | 101
92 | O=C(NC1CCCC1)C1COc2ccccc2O1 (stereo not given) | -12 | -30 | 103 | 105
93 | Cc1nc2c(C(=O)N3CCC4(CC3)OCCO4)c[nH]n2c(=O)c1Cc1ccccc1Cl | 165 | -12 | 100 | 100
94 | O=C(c1cnn(C(=O)C2COc3ccccc3O2)c1)c1ccccc1O (stereo not given) | 35 | -60 | 100 | 101
95 | CC(=O)N1CCc2cc(C(O)CN(Cc3ccccc3)Cc3ccccc3)ccc21 (stereo not given) | 2 | -20 | 100 | 101
96 | CCC(C)NC(=O)c1cccc2c1SCCC2=O (stereo not given) | -12 | -29 | 103 | 105
97 | Cc1[nH]c(=O)[nH]c(=O)c1S(=O)(=O)N1CCOc2ccccc2C1 | -8 | -23 | 101 | 103
98 | Cc1[nH]n(-c2ccccc2)c(=O)c1CCC#N | / | 3 | 99 | 103
99 | Cn1nc(SCC(=O)N2c3ccccc3CCc3ccccc32)sc1=S | 18 | -33 | 100 | 103
100 | Clc1ccc2nc(CN3CCCCC3)cn2c1 | -4 | / | 99 | 108
101 | Oc1nc2c(Cl)c(Cl)c(Cl)cc2o1 | 16 | -5 | 98 | 101
102 | CC(C)(C)c1ccc(C(=O)Nc2n[nH]c(C(F)(F)F)n2)cc1 | -1 | / | 102 | 97
103 | COc1ccccc1OCCNC(=O)c1ccc(S(=O)(=O)N(C)C)cc1 | / | -18 | 105 | 109
104 | COc1ccc(S(=O)(=O)N2CCC(NC(=O)NC3CCCC3)CC2)cc1 | 42 | -14 | 102 | 100
105 | Cc1nc2c(cc1C(=O)NN)c(=O)n(C)c(=O)n2C | / | 3 | 103 | 101
106 | CC(Sc1ncnc2nc[nH]c12)c1ccccc1Cl (stereo not given) | / | -22 | 110 | 113
107 | COC(=O)C1CN(C)CCC1=O (stereo not given) | / | -13 | 100 | 103
108 | O=C(CN1C(=O)C2CCc3[nH]c4ccccc4c3C2C1=O)N1CCCC1 (stereo not given) | -26 | -33 | 103 | 103
109 | Cc1cc(=O)n2c3c(sc2n1)C(=O)N(Cc1ccccc1)C3=O | / | -22 | 102 | 97
110 | O=C(CCNC(=O)c1ccccc1Cl)Nc1ccc2c(c1)OCCO2 | -14 | -11 | 107 | 101
111 | CCC(C)(C)NC(=O)/C=C/c1cnc2ccccc2n1 | 27 | -6 | 112 | 133
112 | CCN(CC)C(=O)CSc1cn(CC(=O)N2CCCC2)c2ccccc12 | -15 | -8 | 101 | 102
113 | O=c1c(Cl)c(NCCO)ncn1-c1ccccc1 | 13 | -15 | 103 | 103
114 | O=C1CC(c2cccc(Br)c2)NC(=O)N1 (stereo not given) | -5 | -33 | 101 | 105
